Screens as filed in PubChem BioAssay.
RE007 growth inh: qHTS Assay for Inhibitors of the HIV-1 protein Vpr; S. pombe RE007 Vpr strain, BacTiter-Glo ATP luminescence, 24 h; control for the full effect not named in the record; 360,000 compounds, 0.21% hits; Potency, µM (highest dose often 92.2 µM), for inactives: top-dose activity change, negative = less growth; active = well fitted falling curve with a large enough effect; inconclusive = small, poorly fitted or top-dose-only effect; inactive = no such curve, though single readings can be large or run the other way;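 note: nearly all actives have a fitted effect of over 50% in size; the assay follows cell death caused by Vpr and the record does not say whether a fall means rescue or toxicity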
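Fission yeast strain RE007, carrying one chromosomally integrated HIV-1 vpr copy, was seeded at OD 0.01 in PMG+AL medium with 23 nL pinned compound. After 24 h at 30 °C and 99% humidity, viability was read by BacTiter-Glo luminescence.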
2A StopGo: High Throughput Screening for Foot and Mouth Disease Virus Antivirals; 410,000 compounds, 1.2% hits; Potency, µM (titrated, usually from 57.9 µM), for inactives: at the top dose signal change, negative = less light; human cells with a luciferase reporter of 2A StopGo recoding; control for the full effect not named in the record; AID 1159524, 2015; active = well fitted falling curve with a large enough effect; inconclusive = small, poorly fitted or top-dose-only effect; inactive = no such curve, though single readings can be large or run the other way; tested in HEK293T cells; note: nearly all actives have a fitted effect of over 45% in size; luciferase light after 4 h
* marks the source's active call; other numbers are inactive results; ? = inconclusive; [ ] = dose if it differs, or a comment. % is set by controls: 0 for no effect and ±100 for the full control effect; potency is the fitted concentration of half-maximal effect. Not all compounds are listed; count on the stated rates, not on these rows.

SMILES	RE007 growth inh	2A StopGo
COc1ccc(CC(=O)Cc2ccc(OC)c(OC)c2)cc1OC	-3.0%	-15.0%
COc1ccc(OC)c(NC(=O)CCNS(=O)(=O)c2ccc3c(c2)CC(C)N3C(C)=O)c1 (stereo not drawn)	-20.3%	-10.9%
FC(F)(F)c1cccc(-c2cc3nc(NC4CCCCC4)ccn3n2)c1	-9.7%[18.4 µM]	9.5%
CN(C(=O)c1cccc(NC(=O)Cc2ccc(NC(=O)C3CCCN(C(=O)C4CCC4)C3)cc2)c1)C1CCC1 (stereo not drawn)	7.5%	-17.7%
Cc1cn([C@H]2C[C@H](O)[C@@H](CCC(=O)NCCc3ccc4ccccc4c3)O2)c(=O)[nH]c1=O	-3.2%	0.0%
COc1cc2c(c(Br)c1N)-c1cc(Br)c(N)cc1C2=O	-11.8%	58.2%[activator]
Fc1cccc(-c2ccc3c(c2)CNCc2cnnn2-3)c1	-18.0%	3.4%
COC(=O)C[C@H]1C=C[C@H](NS(=O)(=O)c2cn(C)cn2)[C@@H](CO)O1	7.9%	-14.8%
CCCCOCCCNC(=O)C[C@@H]1C[C@@]2(C(=O)OCC)CCC=C2N(Cc2ccccc2)C1=O	-9.6%	-10.8%
O=C(NC(c1ccccc1)c1ccsc1)C1CCN(Cc2ccccc2)CC1 (stereo not drawn)	-17.1%	-11.6%
O=C(c1ccc(Cl)cc1)N1CCN(c2ccc(N3CCOCC3)nn2)CC1	3.7%	?
Clc1cccc(NC2=NCCS2)c1	2.8%	-13.1%
Cc1ccc(Cl)cc1-c1cc(C(=O)NCC2CCCCC2)[nH]n1	4.6%	-14.4%
COc1ccc(S(=O)(=O)NNS(=O)(=O)c2ccc(OC)c(OC)c2)cc1OC	4.8%	-15.8%
O=C(NC1CCCC1)C(C1CC1)n1c(C2CCCC2)nc2ccccc21 (stereo not drawn)	-25.1%	-6.3%
COc1ccc(C(C)(O)c2nc(/C=C/c3ccccc3)cs2)cc1 (stereo not drawn)	12.1%	-11.8%
FC(F)(F)c1ccccc1Cc1c(-c2cccc(Cl)c2)nc2ccc(Br)cn12	-8.2%	18.1%
CC(C)c1ccc(CC(=O)N2CCC2(C)C(=O)NS(=O)(=O)c2ccc(Cl)s2)cc1 (stereo not drawn)	10.9%[18.4 µM]	-5.5%
CCN(CC)C(=O)c1cccc(-c2csc(C(C)(NC(C)=O)c3ccccc3)n2)c1 (stereo not drawn)	36.5%	0.5%
COc1cccc(CN(C)CCCn2cnc(C(=O)Nc3ccc(C)c(C)c3)n2)c1	-18.0%	-20.2%
COc1ccc(C(O)c2ncc(-c3ccccc3)[nH]2)cc1 (stereo not drawn)	?	0.0%
O=C(Nc1ccc(Cl)c(C(F)(F)F)c1)[C@@H]1CC=C[C@@H]2CCN(C3CC3)C(=O)[C@@H]21	-11.3%	-15.5%
Cc1cn([C@H]2C[C@H](O)[C@@H](CNC(=O)[C@H](N)Cc3cscn3)O2)c(=O)[nH]c1=O	-20.0%	-15.8%
CCc1nc2c(OCc3ccccc3)cccn2c1N(C)C(=O)Nc1ccccc1OC	-1.9%	-24.8%
CC(=O)NCCNc1nc2cc(-c3ccsc3)sc2c(=O)n1C	4.8%	-24.7%
C=C1CCN([C@@H](Cc2ccccc2)C(=O)NCCCc2ccccc2)S(=O)(=O)c2ccccc21	-5.9%	-24.5%
Cc1cc2c(cc1C)-n1nnnc1C(N1CCN(c3ccccc3F)CC1)C(=O)N2 (stereo not drawn)	5.7%	-21.5%
CC1(C)CC(=O)C=C(c2cccc3c2oc2ccccc23)C1	17.3%	7.9%
CCOC(=O)N(C)C[C@H]1OCc2cnnn2CCCC(=O)N([C@@H](C)CO)C[C@H]1C	1.3%	-22.0%
Cc1cc(C)n2c(NC3CCCC3)c(-c3cccnc3)nc2n1	-8.6%	-18.4%
CCc1nc2ccc(C(=O)NCCCN(C)C)cn2c1N(C)CCCc1ccccc1	-11.7%	-22.8%
Cc1ccc(NC(=C(C#N)C#N)c2ccccc2)cc1	5.8%	-14.4%
CCCNC(=O)c1cc(C2CCCCN2C(=O)c2ccc(C(C)C)cc2)on1 (stereo not drawn)	15.8%	-6.4%
CC1=C(C(=O)N2CCCCCC2)CC(CC(=O)NC2CCCCC2)C(=O)N1Cc1ccccc1 (stereo not drawn)	-5.0%	-3.1%
COC(=O)[C@]12CCCCC=C1N(Cc1ccc(Cl)cc1Cl)C(=O)[C@H](CC(=O)NCC1CCCCC1)C2	14.8%	10.3%
COc1ccc(NC(=O)CCNC(=O)N2CC(=O)Nc3ccccc32)cc1	8.0%	-14.7%
O=C(CN1CCN(S(=O)(=O)c2ccc(Br)s2)CC1)NCC1CCCCC1	18.3%	0.0%
COC(=O)[C@@]1(Sc2ccc(C)cc2)CC(=O)N[C@@H]1c1ccc(C(F)(F)F)cc1	3.3%	-1.6%
COC(=O)CCCn1cc(CN2CC(N(C)C)CS2(=O)=O)nn1 (stereo not drawn)	-0.3%	-21.9%
CC1(C(=O)NS(=O)(=O)c2ccc3ccccc3c2)CCN1C(=O)CC1CCCCC1 (stereo not drawn)	1.4%[18.4 µM]	4.2%
Nc1ccc(C(=O)Nc2ccc(Nc3ccncc3)cc2)c([N+](=O)[O-])c1	15.4%	-10.9%
COc1ccc(S(=O)(=O)NC(=O)C2(C)CCN2C(=O)CCc2ccc(Cl)cc2Cl)cc1 (stereo not drawn)	0.1%	-3.4%
COc1ccc(-c2ccc3c(c2)[C@@H]2C[C@H](N(C)C(=O)Nc4ccccc4)[C@H]([C@H](C)O)C(=O)N2CC3)cc1	-11.9%	-22.6%
CCCCCCCCNCCS(=O)(=O)NCc1ccc(OC)cc1	-14.7%	-30.8%
CCCCCCCCCOC(=O)C1N2C(=O)[C@@H](NC(=O)COc3ccccc3)[C@H]2SC1(C)C (stereo partly drawn)	-2.6%	-10.0%
CCCCN1C(=O)C(CC(=O)NC2CCCC2)CC(C(=O)N(CC)CC)=C1C (stereo not drawn)	-9.7%	-29.7%
O=[N+]([O-])c1ccc(O)c(C=NN2CCCCC2)c1	-18.3%	20.6%
CCN(CC)c1ccc(S(=O)(=O)N2CCOCC2)cc1NC(=O)COC(=O)/C=C/c1ccco1	9.4%	-13.2%

6 compounds drawn at random from the list so far:
SMILES	RE007 growth inh	2A StopGo
COc1ccc(S(=O)(=O)NC(=O)C2(C)CCN2C(=O)CCc2ccc(Cl)cc2Cl)cc1 (stereo not drawn)	0.1%	-3.4%
O=C(CN1CCN(S(=O)(=O)c2ccc(Br)s2)CC1)NCC1CCCCC1	18.3%	0.0%
CCN(CC)c1ccc(S(=O)(=O)N2CCOCC2)cc1NC(=O)COC(=O)/C=C/c1ccco1	9.4%	-13.2%
Nc1ccc(C(=O)Nc2ccc(Nc3ccncc3)cc2)c([N+](=O)[O-])c1	15.4%	-10.9%
CCCCCCCCCOC(=O)C1N2C(=O)[C@@H](NC(=O)COc3ccccc3)[C@H]2SC1(C)C (stereo partly drawn)	-2.6%	-10.0%
CCCCN1C(=O)C(CC(=O)NC2CCCC2)CC(C(=O)N(CC)CC)=C1C (stereo not drawn)	-9.7%	-29.7%

Additional structures.
SMILES	RE007 growth inh	2A StopGo
CCn1c(SCC(=O)NC2CC2)nc2ccccc21	7.9%	-19.7%
O=c1oc(=S)oc2c1[C@H](c1ccc(Cl)cc1)O[C@H](C1CCCC1)C2	-19.7%	0.0%
CCN(C(=O)COC(=O)c1ccccc1Cc1ccccc1)c1c(N)n(Cc2ccccc2)c(=O)[nH]c1=O	0.0%	-0.7%
O=C(NCc1ccccc1)C1c2ccccc2OCC(=O)N1CCc1ccccc1 (stereo not drawn)	5.3%	-13.6%
CN(C)c1ccc(-c2csc(C(C)(O)c3ccccc3)n2)cc1 (stereo not drawn)	-6.8%	-11.2%
CC(C)CNC(=O)C1(C)CCCN1C(=O)c1cccnc1 (stereo not drawn)	-10.9%	-14.0%
O=C(CN1CCN(C(=O)CCC(=O)N2CCC(c3ccccc3)=N2)CC1)Nc1cccc(F)c1	-1.9%	?
COc1cc(-c2cc3nc(NCc4cccs4)ccn3n2)cc(OC)c1OC	3.1%	?
CCCCN1C(=O)C(CC(=O)NCCCN(C)C)CC(C(=O)N(CC)CC)=C1C (stereo not drawn)	-3.0%	-21.5%
CC(=O)Nc1ccc(C(=O)N2CCCCC2c2cc(C(=O)NCc3ccccc3)no2)cc1 (stereo not drawn)	9.2%	-12.1%
COc1ccc(NC(=O)c2cc(-c3cc(F)ccc3OCC3CCCO3)n[nH]2)c(C)c1 (stereo not drawn)	-13.6%	-29.1%
COc1cc(C(C)=O)ccc1OCC(=O)N1CCC(Cc2ccccc2)CC1	-6.9%	?
O=C(NC1CCCCC1)[C@@H]1CC=C[C@@H]2CCN(Cc3ccccc3)C(=O)[C@@H]21	4.9%	8.8%
O=S(=O)(CCNCc1ccccc1)NC1CCCCC1	-8.8%	28.9%
CCN(CC)C(=O)C1=C(C)N(CCC2=CCCCC2)C(=O)C(CC(=O)NC(c2ccccc2)c2ccccc2)C1 (stereo not drawn)	-18.2%	-5.9%
CCCNC(=O)N[C@H]1CC[C@@H](CCn2cc(-c3cccc(F)c3)nn2)O[C@@H]1CO	-1.2%	-14.5%
O=C(NCc1cccc(Cl)c1)C1Cc2c(-c3cccc(F)c3)ccnc2O1 (stereo not drawn)	-5.1%[18.4 µM]	-9.3%
CCOC(=O)[C@]12CCC=C1N(Cc1ccccc1)C(=O)[C@H](CC(=O)N1CCOCC1)C2	9.7%	-8.7%
COC(=O)c1cc(=O)nc(NN=C2c3ccccc3-c3ccccc32)s1	-20.8%	-20.2%
CC(C)(C)c1ccc(CC(=O)N2CCC2(C)C(=O)NS(=O)(=O)c2ccc3c(c2)CCO3)cc1 (stereo not drawn)	1.6%	-12.1%
O=C1NC(Cc2ccc(O)cc2)c2nc3cc(F)ccc3c(=O)n2-c2cc3ccccc3cc21 (stereo not drawn)	-19.4%	-14.5%
CC(C)C[C@H]1COc2cc(N3CCN(Cc4ccccc4F)CC3)ccc2S(=O)(=O)N1	-17.9%	0.0%
Cc1cccc(C)c1NC(=O)C1(C)CSCC(=O)N1CCc1ccc(O)cc1 (stereo not drawn)	0.0%	-0.7%
O=C(NCc1ccccc1)C1CNCC(C(=O)NCc2ccccc2)C1 (stereo not drawn)	-2.6%	-17.5%

Complete entries from above:
Shown for CCc1nc2c(OCc3ccccc3)cccn2c1N(C)C(=O)Nc1ccccc1OC = RE007 growth inh: -1.9%; 2A StopGo: -24.8%
Shown for COc1ccc(OC)c(NC(=O)CCNS(=O)(=O)c2ccc3c(c2)CC(C)N3C(C)=O)c1 (stereo not drawn) = RE007 growth inh: -20.3%; 2A StopGo: -10.9%

Other compounds follow:
SMILES	RE007 growth inh	2A StopGo
OC[C@H]1O[C@H](c2nc(-c3nc(-c4cccs4)no3)cs2)C[C@@H]1O	1.0%	-7.1%
O=S(=O)(Nc1ccc(-c2cn3c(n2)SCC3)cc1)c1cc(F)ccc1F	1.5%	1.3%
C(=C\c1ccc2nncn2c1)/c1ccccc1	6.2%[18.4 µM]	28.1%
CC(C)C[C@H]1CN(CCCC[C@H]2CNC(=O)C(=O)N2CCc2ccccc2)C(=O)C(=O)N1CCC1CCCCC1	-2.5%	-10.8%
COc1cc(CNC[C@H]2O[C@@H](n3cc(C)c(=O)[nH]c3=O)C[C@@H]2O)ccc1OCc1cccc(Cl)c1	0.7%	-21.6%
COc1ccc(-c2coc3c(C(=O)NCc4cccc(Cl)c4)cccc23)c(C)c1	10.0%	0.0%
COc1cccc(CCNC(=O)c2cc(COc3ccc(C)c(C)c3)on2)c1OC	-10.8%	20.9%
CC(C)(C)NC(=O)C(C1CC1)n1c(-c2ccccc2)nc2ccccc21 (stereo not drawn)	-5.8%	15.6%
S=C(NCCc1ccccc1)N/N=C/c1cccs1	?	15.2%
CCC(O)c1cnc(OCc2ccccc2)nc1OCc1ccccc1 (stereo not drawn)	4.8%	-14.9%
CCOC(=O)C1=CCN(S(=O)(=O)c2ccc(C)cc2)C1c1ccc(C)cc1 (stereo not drawn)	4.3%	?
COc1ccc(-c2cnc3c(NC(C)=O)cc(-c4ccsc4)cn23)cc1OC	0.4%[18.4 µM]	-16.4%
C[C@H]1C=CC(=O)O[C@H]1c1ccccc1	-1.8%	-27.9%
COc1ccc(CNC(=O)c2cccc3c(-c4ccc(F)c(F)c4)coc23)cc1OC	-9.3%	-25.7%
Cc1ccc(NC(=O)CN2CCN(C(=O)C3CC3)CC2)c(F)c1	-1.1%	-19.1%
O=C1NC[C@H](CCCCN2C[C@H](Cc3ccc(O)cc3)N(CCC3CCCCC3)C(=O)C2=O)N(CCC2CCCCC2)C1=O	4.8%	-4.8%
c1ccc2cc(C3OCC4(CCCC4)CO3)ccc2c1	2.1%	91.0%[activator]
Nc1ccc(C#Cc2ccc3sc4ccccc4c(=O)c3c2)cc1	-14.4%	66.8%[activator]
CCOC(=O)C[C@H]1c2ccccc2S(=O)(=O)N1c1ccccc1	-5.2%	38.7%[activator]
CN(C(=O)c1cccc(NC(=O)Cc2ccc(NC(=O)C3CCN(C(=O)C4CCCC4)CC3)cc2)c1)C1CCC1	2.1%	-16.7%
COC(=O)C1=C(c2ccc(S(C)(=O)=O)cc2)C[C@@H]2CC[C@H]1N2C(=O)NC1CC1	-5.7%	10.9%
CC(=O)c1c(O)cc2c3c1OC(C)(C)C1CCC(C)(CC31)O2 (stereo not drawn)	-9.0%	?
OCCN1CCN(c2nccn3ccnc23)CC1	-4.8%	-6.6%
